High-throughput results from PubChem.
RE007 growth inh = less growth of the S. pombe RE007 Vpr strain; S. pombe RE007 Vpr strain, BacTiter-Glo ATP luminescence, 24 h; control for the full effect not named in the record; Potency, µM (titrated, usually from 92.2 µM), for inactives: top-dose activity change, negative = less growth; 360,000 compounds, 0.21% hits; AID 651644; active = well fitted falling curve with a large enough effect; inconclusive = small, poorly fitted or top-dose-only effect; inactive = no such curve, though single readings can be large or run the other way;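 also: % is scaled to controls: 0 for no effect and ±100 for the full control effect; nearly all actives have a fitted effect of over 50% in size; the assay follows cell death caused by Vpr and the record does not say whether a fall means rescue or toxicity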
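Fission yeast RE007 carrying one integrated HIV-1 vpr copy, seeded at OD 0.01 in PMG+AL medium with 23 nL pinned compound. Grown 24 h at 30 degrees; viability read by BacTiter-Glo luminescence after 5 min.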
Lassa entry inh = blocks Lassa virus binding to or entry into cells. Potency, µM (series often up to 37.9 µM), for inactives: top-dose activity change, negative = inhibition, usual class: inhibitors. 300,000 compounds, 1.2% hits. AID 540256. Lassa virus pseudotype entry inhibition, cell reporter; control for the full effect not named in the record; active means well fitted inhibition curve with a large enough effect; inconclusive means small, poorly fitted or top-dose-only effect, or effect the other way; inactive means flat fitted curve, though single readings scatter; tested in HEK293 cells; also: % is scaled to controls: 0 for no effect and ±100 for the full control effect; nearly all actives have a fitted effect of over 50% in size; luciferase read-out
NS1 inh = blocks influenza NS1 protein function; Potency, µM (doses to about 46.1 µM), for inactives: top-dose activity, positive = more growth; S. cerevisiae slowed by influenza A NS1, growth recovery by OD600; 270,000 compounds, 0.4% hits; AID 2326; also: actives are rising curves; nearly all actives have a fitted effect of over 50% in size
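A cell-based growth assay was used: compounds that relieve NS1-induced slow growth of budding yeast raise OD600. Assay medium was yeast nitrogen base with ammonium sulphate and -URA supplement, pH 6.0, with 2% galactose.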
2A StopGo = lowers the luciferase signal of an FMDV 2A StopGo reporter; human cells with a luciferase reporter of 2A StopGo recoding; control for the full effect not named in the record; AID 1159524; 410,000 compounds, 1.2% hits; Potency, µM (doses to about 57.9 µM), inactives show at the top dose signal change, negative = less light; active = well fitted falling curve with a large enough effect; inconclusive = small, poorly fitted or top-dose-only effect; inactive = no such curve, though single readings can be large or run the other way; tested in HEK293T cells; also: % is scaled to controls: 0 for no effect and ±100 for the full control effect; nearly all actives have a fitted effect of over 45% in size; luciferase light after 4 h
Marburg entry inh = Marburg virus entry inhibition. 300,000 compounds, 1.8% hits. AID 540276. Marburg virus pseudotyped entry inhibition, cell reporter; control for the full effect not named in the record; about a third of the inactives were read at about 46 µM. Potency, µM (series often up to 37.8 µM), for inactives: at the top dose activity change, negative = inhibition, usual class: inhibitors; active = well fitted inhibition curve with a large enough effect; inconclusive = small, poorly fitted or top-dose-only effect, or effect the other way; inactive = flat fitted curve, though single readings scatter; tested in HEK293 cells; about a fifth of its hits are not listed in these tables; also: % is scaled to controls: 0 for no effect and ±100 for the full control effect; luciferase read-out
SARS PLP yeast = blocks SARS-CoV papain-like protease in a yeast assay | S. cerevisiae expressing SARS-CoV PLpro, growth rescue; control for the full effect not named in the record | Potency, µM (series often up to 32.9 µM), for inactives: top-dose activity, positive = growth rescue | 330,000 compounds, 0.19% hits | AID 485353; also: 0% is about no effect; nearly all actives have a fitted effect of over 55% in size; growth read by luminescence after 48 h
Cruzain noTriton = cruzain (T. cruzi) inhibition without detergent. P25779. AID 1476. purified cruzain, Z-FR-AMC fluorescence, no detergent. 200,000 compounds, 2.3% hits. Potency, µM, for inactives: max response, negative = inhibition, actives largely listed as inhibitors; active = well fitted curve in the direction sought with a large enough effect; inconclusive = small, poorly fitted or top-dose-only effect, or another doubt; inactive = no such curve, though single readings can be large; an effect the other way counts as inactive or inconclusive;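 also: plate controls were enzyme without inhibitor for no effect and buffer without enzyme for full effect; nearly all actives have a fitted effect of over 40% in size; top concentration of the series not given in the record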
Target sequence (P25779 123-467 limits assumed): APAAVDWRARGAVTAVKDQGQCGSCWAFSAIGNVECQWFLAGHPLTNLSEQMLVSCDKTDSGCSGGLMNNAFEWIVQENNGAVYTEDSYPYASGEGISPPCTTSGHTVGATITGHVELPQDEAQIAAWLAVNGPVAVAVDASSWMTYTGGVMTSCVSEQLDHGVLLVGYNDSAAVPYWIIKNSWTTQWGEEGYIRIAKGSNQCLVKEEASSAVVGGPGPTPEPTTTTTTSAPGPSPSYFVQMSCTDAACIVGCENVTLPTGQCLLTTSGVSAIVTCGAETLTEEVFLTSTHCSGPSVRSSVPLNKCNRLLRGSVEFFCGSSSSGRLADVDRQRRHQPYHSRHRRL
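Detergent-free condition (0.00005% Triton X-100) in acetate buffer pH 5.5 with DTT. 1.5 nM enzyme and compound were pre-mixed 15 min, then 2 uM Z-FR-AMC substrate added; reaction progress from fluorescence change between first and third reads (60 s).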
Cruzain inh Det = cruzain (T. cruzi) inhibition with detergent. 200,000 compounds, 0.43% hits. P25779. Potency, µM, inactives show max response, negative = inhibition, usual class: inhibitors. AID 1478. purified cruzain, Z-FR-AMC fluorescence, 0.01% Triton; active = well fitted curve in the direction sought with a large enough effect; inconclusive = small, poorly fitted or top-dose-only effect, or another doubt; inactive = no such curve, though single readings can be large; an effect the other way counts as inactive or inconclusive;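 also: plate controls were neutral wells for no effect and buffer without enzyme for full effect; nearly all actives have a fitted effect of over 40% in size; top concentration of the series not given in the record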
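Detergent-containing run (0.01% Triton X-100) in acetate buffer pH 5.5 with 5 mM DTT: enzyme at 1.5 nM final, 15 min compound preincubation at room temperature, then 2 uM Z-FR-AMC substrate. Activity taken as 60 s fluorescence increase at 360/450 nm.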
* marks the source's active call; other numbers are inactive results; ? = inconclusive; · = no result given; & = joins results of further samples; [ ] = remark or other dose. Unless noted, calls follow the shape of the dose curve; as a rule, active means well fitted rising curve with a large enough effect; inconclusive means small, poorly fitted or top-dose-only effect; inactive means no such curve, though single readings can be large or run the other way. Potency is read from the fitted curve at half-maximal effect. Rows were taken by chance; 4.7% or so of the library scored in one or more.

Order of values – RE007 growth inh	Lassa entry inh	NS1 inh	2A StopGo	Marburg entry inh	SARS PLP yeast	Cruzain noTriton	Cruzain inh Det
Cc1cc(C)n(-c2nc(C(=O)O)cs2)n1
  5.3%	-4.1%	·	3.1%	23.4%[46.1 µM]	-2.4%	·	·
Cc1nnc(SCC(=O)N(Cc2ccccc2)C(C)(C)C)[nH]c1=O
  -8.1%	1.9%[46.1 µM]	0.7%	1.8%	9.4%[46.1 µM]	0.0%	·	·
Cc1cc(NC(=O)CCl)on1
  22.3%	-19.0%	·	?	-16.9%[46.1 µM]	8.5%	·	·
O=C(CSc1ncn[nH]1)NCc1ccc(Cl)cc1
  11.2%	-9.1%	-3.1%	6.7%	-1.0%[46.1 µM]	0.2%	·	·
O=C(CSc1nc2ccccc2n1Cc1ccc(F)cc1)N1CCN(c2ccc(F)cc2)CC1
  ·	?	·	-21.5%	·	·	-2.4%	-1.0%
COC(=O)c1ccc(N2C(=O)C3CC=CC(C)C3C2=O)cc1 (stereo unspecified)
  7.0%	-9.5%	·	-12.5%	-5.7%[14.2 µM]	5.2%	·	·
Cn1c(=O)c2ncn(CC(=O)N/N=C/C=C/c3ccccc3)c2n(C)c1=O
  0.8%	13.6%	-5.9%	-12.0%	-4.5%[46.1 µM]	-3.6%	·	·
Cc1ccc(N=CC2=C(O)CC(c3cccc(Cl)c3)CC2=O)cc1 (stereo unspecified)
  -4.2%	-10.3%	8.5%	?	?	4.6%	12.8%	-2.4%
CC(C)(CNC(=O)CC1C(=O)NCCN1Cc1cccc(F)c1)N1CCOCC1 (stereo unspecified)
  -10.1%	·	0.4%	-18.6%	·	-5.2%	·	·
Cc1noc(C)c1C(=O)Nc1ccc(C#N)cc1
  4.1%	·	-3.7%	-12.0%	·	-1.0%	·	·
O=C1NC(=O)C(=Cc2ccc(-c3ccc(Cl)cc3)o2)C(=O)N1
  34.6%	·	-3.3%	31.6µM*	·	5.6%	·	·
Cc1ccc(C(=O)NC(=S)Nc2ccc(NC(=O)c3cccc(Cl)c3)cc2)cc1
  2.8%	2.31µM*	-1.7%	3.0%	1.26µM*	6.0%	?	-3.3%
COc1ccc2c3c(c(=O)oc2c1OCC(=O)O)CCCC3
  1.0%	2.4%	20.2%	-26.0%	0.3%	28.2%	-12.2%	-5.1%
CC(=O)N1CCN(c2nc(C)nc3sc4c(c23)CCC(C)C4)CC1 (stereo unspecified)
  -0.6%	11.4%	-45.3%	-15.2%	-3.9%	-10.1%	?	-5.9%
COc1cc(/C=C2/SC(=Nc3ccc(O)cc3)NC2=O)ccc1O
  5.7%	·	1.0%	-4.2%	·	0.9%	·	·
CCOc1cc(/C=N/NC(=O)c2ccc(CN3CCOCC3)cc2)ccc1OC
  3.5%	1.9%	2.4%	?	?	0.4%	·	·
O=C(c1nc2ccccn2c1CN1CCC(Cc2ccccc2)CC1)N1CCCC1
  -15.1%	-18.2%	1.8%	-13.6%	?	-0.1%	·	·
CC(C)NC(=O)c1ccc2c(c1)N(CC(=O)N1CCCCC1)C(=O)C(C)(C)O2
  1.8%	2.7%	1.5%	1.4%	7.2%	·	·	·
CN1CCN(CCCCOc2ccc(Br)cc2)CC1
  -4.4%	·	-5.3%	-1.6%	·	-1.9%	·	·
COc1ccc(C(=O)NC(=S)NNC(=O)c2c(-c3ccccc3)noc2C)cc1OC
  4.7%	-24.2%[46.1 µM]	-1.7%	0.0%	-27.6%[46.1 µM]	-1.8%	·	·

Record cards (already shown).
`Cc1cc(C)n(-c2nc(C(=O)O)cs2)n1` is entered as RE007 growth inh: 5.3%; Lassa entry inh: -4.1%; NS1 inh: ·; 2A StopGo: 3.1%; Marburg entry inh: 23.4%[46.1 µM]; SARS PLP yeast: -2.4%; Cruzain noTriton: ·; Cruzain inh Det: ·
`CC(C)(CNC(=O)CC1C(=O)NCCN1Cc1cccc(F)c1)N1CCOCC1` (stereo unspecified) is entered as RE007 growth inh: -10.1%; Lassa entry inh: ·; NS1 inh: 0.4%; 2A StopGo: -18.6%; Marburg entry inh: ·; SARS PLP yeast: -5.2%; Cruzain noTriton: ·; Cruzain inh Det: ·

(more compounds)
Order of values – RE007 growth inh	Lassa entry inh	NS1 inh	2A StopGo	Marburg entry inh	SARS PLP yeast	Cruzain noTriton	Cruzain inh Det
Cc1cccc2c1-c1sc(C(=O)N(C)c3cccc(Cl)c3)cc1CO2
  ·	·	·	-14.2%	-0.4%[46.1 µM]	·	8.2%	-3.6%
O=C(NCC1CCCO1)c1c(O)c2ccccc2[nH]c1=O (stereo unspecified)
  -8.2%	6.6%	-70.7%	19.3%	?	3.5%	?	-1.2%
COCCCn1c(-c2ccc(S(=O)(=O)N3CCOCC3)cc2)csc1=Nc1ccccc1
  -6.0%	-3.5%[46.1 µM]	6.2%	11.2µM*	27.3%&27.3%	9.8%	?	-2.0%&-2.3%
CCc1c(C)sc(NC(=O)c2ccc(Br)o2)c1C(=O)OC
  -20.7%	?	-10.2%[9.22 µM]	-21.5%	?	2.8%	-18.2%	-13.8%
Cc1cccc(NC(=O)c2ccc3snnc3c2)c1
  ·	8.2%[46.1 µM]	·	21.0%	23.9%[46.1 µM]	·	4.3%	-5.2%
N#CCCN/N=C(/Cc1nc2ccccc2[nH]1)c1cccc(Cl)c1
  2.4%	?	10.5%	25.3%	-8.1%	6.2%	?	-11.2%
Cc1ccccc1-c1cc(=O)c2c(O)cccc2o1
  -29.2%	·	-12.6%	9.2%	·	-3.4%	·	·
COCc1ccc(C(=O)N2CCCC(C(=O)c3cc(F)ccc3F)C2)s1 (stereo unspecified)
  15.6%	17.4%	0.5%	-14.6%	8.7%[46.1 µM]	0.5%	·	·
COc1ccc(N2CCn3c2nc2c3c(=O)n(CCc3ccccc3)c(=O)n2C)cc1
  ·	·	0.0%	·	-1.8%	8.1%	3.9%	7.1%
CCN(c1ccccc1)S(=O)(=O)c1cc([N+](=O)[O-])ccc1N
  -6.3%	?	2.0%	-12.1%	?	-0.1%	·	·
O=C(CN1C(=O)c2ccccc2S1(=O)=O)Nc1cccc(S(=O)(=O)N2CCCCC2)c1
  20.3%	14.9%	·	-3.3%	-12.8%	-2.7%	·	·
CC(C)OC(=O)c1c(NC(=O)c2cccs2)sc2c1CCCC2
  3.1%	-5.6%	-6.5%	-11.0%	-7.4%	9.3%	-21.6%	-6.2%
CCSc1nc2ccccc2n1Cc1cccc([N+](=O)[O-])c1
  -4.6%	-3.7%	-6.6%	0.0%	-1.2%	-1.1%	-3.3%	-1.2%
COc1cccc(-c2nnc(SCC(=O)Nc3cc(C)on3)o2)c1
  -2.5%	-8.3%	-4.3%	19.1%	-15.1%	-0.2%	13.2%	2.8%
Cc1ccc(S(=O)(=O)NCC(=O)N/N=C/c2ccccc2O)cc1
  -10.2%	7.3µM*	-3.2%	-7.4%	?	-0.8%	·	·
O=C(COn1nnc2ccc(S(=O)(=O)N3CCOCC3)cc21)NCCc1ccccc1
  -3.9%	12.5%	·	-9.4%	-1.7%	-9.3%	·	·
Cc1cc(Nc2cc(Cl)ccc2C)n2nc(Cc3ccccc3)nc2n1
  ·	-15.7%[46.1 µM]	·	?	-4.9%[46.1 µM]	·	8.9%	1.2%
O=c1cc(-c2ccccc2Cl)oc2c(NS(=O)(=O)c3cc(Cl)cc(Cl)c3O)ccc(O)c12
  -2.2%	-4.5%	-69.1%	?	-2.0%	-57.8%	4.7%&8.8%	25.1µM*
COC(C(=O)Nc1ccnn1C1CCN(Cc2ccccn2)CC1)c1ccccc1 (stereo unspecified)
  9.3%	15.3%	14.5%	-3.8%	12.2%	0.1%	·	·
CCN1/C(=C/c2sc(-c3ccccc3C)c[n+]2C)Sc2ccccc21
  ?	?	·	11.2µM*	?	-31.9%	·	·
Nc1nnc(Cc2ccc(Cl)c(Cl)c2)s1
  26.1%	-13.6%	-12.5%	-25.8%	-14.3%	-6.6%	3.1%	1.8%
CC(=O)N/C(=N\c1nc(C)cc(C)n1)Nc1ccc2ccccc2c1
  -3.6%	15.5%	13.2%	8.0%	8.0%	1.1%	·	·
Cc1ccccc1NC(=O)N1CCN(C/C=C/c2ccccc2)CC1
  -6.1%	·	-0.3%	-12.6%	·	-0.3%	·	·
CCOc1ccc(C)cc1S(=O)(=O)n1cnc2ccccc21
  -11.8%	·	-20.5%	0.0%	·	1.1%	·	·
CCCCc1nc2ccccc2n1Cc1nnc2n1-c1ccccc1SC2
  -10.5%	7.9%	-4.7%	-20.5%	-15.5%	10.4%	-3.2%	-5.9%
Cc1noc(/C=C/c2ccccn2)c1[N+](=O)[O-]
  17.1%	?	-129.1%	-25.8%	?	-25.5%	·	·
COc1ccc(-c2c(NC(=O)c3ccco3)oc3c(C)cccc3c2=O)cc1OC
  -7.4%	-2.3%[46.1 µM]	-16.6%	-23.5%	?	0.4%	·	·
CC(=O)Nc1ccc(S(=O)(=O)NC2=NCN(c3cccc([N+](=O)[O-])c3)CN2)cc1
  5.2%	-11.2%	6.9%	-23.0%	11.1%	-1.0%	·	·
Cc1cc(C)n2nc(CNC(=O)c3ccc(Cl)cc3)nc2n1
  ·	1.4%[46.1 µM]	·	-4.5%	-1.7%[46.1 µM]	·	-1.8%	-1.1%
CCCNS(=O)(=O)c1ccc(NC(=O)c2cccnc2)cc1
  0.6%	3.7%	4.0%	29.8%	-5.6%	6.9%	-1.5%	1.5%
